Screening results (PubChem BioAssay)
VDR inhibitor = inhibitors of human vitamin D receptor; AID 504847; Potency, µM, for the others: max response, negative = inhibition, actives largely listed as inhibitors; 0.93% of 400,000 active; VDR-SRC2-3 peptide fluorescence polarization, 2 h; active means well fitted inhibition curve with a large enough effect; inconclusive means small, poorly fitted or top-dose-only effect, or another doubt; inactive means no such curve, though single readings can be large or run the other way; further: series mostly up to about 120 µM
Target sequence (P11473 whole entry, looked up): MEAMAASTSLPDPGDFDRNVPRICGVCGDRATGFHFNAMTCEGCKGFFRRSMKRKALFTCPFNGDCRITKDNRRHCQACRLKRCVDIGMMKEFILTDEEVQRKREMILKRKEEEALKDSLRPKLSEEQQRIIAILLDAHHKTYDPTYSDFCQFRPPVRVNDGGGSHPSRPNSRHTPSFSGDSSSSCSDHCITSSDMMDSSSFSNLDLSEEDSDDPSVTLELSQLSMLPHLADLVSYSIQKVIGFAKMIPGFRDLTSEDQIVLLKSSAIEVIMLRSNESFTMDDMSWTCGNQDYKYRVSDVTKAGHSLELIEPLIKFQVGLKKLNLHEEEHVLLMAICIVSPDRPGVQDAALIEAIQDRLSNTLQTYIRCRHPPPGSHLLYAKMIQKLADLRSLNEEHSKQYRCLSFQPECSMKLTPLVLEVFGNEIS
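Two reagent solutions held at 4 deg C in the dark were dispensed, compounds pinned at 23 nl, and the mixture incubated 2 h at room temperature. Read-out: fluorescence polarization of VDR–SRC2-3 peptide binding.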
* hit, by the source's call; ? = inconclusive; & = joins results of further samples; [ ] = remark or other dose. On the % scale 0 is the no-effect control and ±100 the full control effect; potency means the concentration at half of the fitted maximal effect. These rows are one share of the data; rates above refer to the full screens.

molecule,VDR inhibitor
O=C(O)c1cccc2c1-c1ccccc1/C2=N\Nc1ccccc1,-18%
CC(C)OCCCNC(=O)c1cc(-c2cccs2)nc2ccccc12,10%
O=C(Cc1coc2ccc3ccccc3c12)N1CCCC1,-11%
CCCCCCNC(=O)CCc1c(C)nc2nc(-c3cc(OC)cc(OC)c3)nn2c1C,-16%
CN(CCOc1ccccc1)CC(=O)Nc1ccc(Cl)c(S(=O)(=O)N(C)C)c1,5%
COc1ccc(N2CCN(Cc3nc4c(c(=O)[nH]c(=O)n4C)n3Cc3ccc(C)cc3)CC2)cc1,-1%
COc1cccc(SCc2noc(C(=O)NCC3CCCO3)c2C(=O)O)c1 (configuration not stated),8%
Cc1cc(N2C(=O)CC(C(C)c3ccccc3)C2=O)no1 (configuration not stated),7%
CCOC(=O)c1cc(S(=O)(=O)N2CCN(c3ccccc3F)CC2)[nH]n1,1%
Fc1ccc(C2c3[nH]c4ccccc4c3CCN2Cc2cccn2-c2ncccn2)cc1 (configuration not stated),5%
Cc1cc(Nc2ccccc2F)n2nc(C)nc2n1,-6%
CC(=O)c1cc(NC(=O)c2ccc([N+](=O)[O-])cc2)c(=O)oc1C,0%
CN(CC(=O)NC(=O)NC1CCCCC1)Cc1ccccc1,-15%
Cc1ccc(C(=O)C[n+]2cccc3ccccc32)cc1,12%
CCCNC(=O)Cn1nc(C)n2c(cc3cc(F)ccc32)c1=O,34%[activator]
O=C(NC1CCS(=O)(=O)C1)C1CCCCN1S(=O)(=O)c1ccc(Cl)cc1 (configuration not stated),-12%
COc1ccc(CCNC(=O)c2cc3c(=O)n(C)c4ccccc4c3n2C)c(OC)c1,-10%
CCCCN(C(=O)C1CCN(C(=O)c2ccccc2C)CC1)c1c(N)n(CCCC)c(=O)[nH]c1=O,2%
O=C(Nc1ccc(F)cc1)N1CCn2c(nc3ccccc32)C1,5%
CS(=O)(=O)N1CCc2ccc(NC(=O)C3CCCO3)cc2C1 (configuration not stated),7%
CCc1ccc(NC(=O)Cn2c(C(=O)OC)cc3oc(C)cc32)cc1,-1%
COc1ccc(S(=O)(=O)N(C)C[C@@H]2Oc3c(NS(=O)(=O)c4cn(C)cn4)cccc3C(=O)N([C@@H](C)CO)C[C@@H]2C)cc1,-1%
O=C(c1ccccc1Br)N1CCN(Cc2ccc3c(c2)OCO3)CC1,-2%
CCOC(=O)C1=C(C)NC(C)=C(C(=O)OCC)C1/C=C/c1ccccc1OC,3%
Cc1ccc(O)c(/C=N/NC(=O)CN2CCCC2)c1,-12%
Cc1noc(C)c1S(=O)(=O)N(C)C[C@H]1Oc2ccc(NC(=O)C3CC3)cc2C(=O)N([C@H](C)CO)C[C@@H]1C,1%
CCCCC1OC23CCCCC2C(C#N)(C#N)C1(C#N)C(=N)O3 (configuration not stated),-2%
COC(=O)C1=C[C@@H](C(=O)OC)[C@@H]2C3=C(C(=O)[C@@]2(C)NC(=O)c2ccccc2)[C@H](c2ccccc2)n2c(=O)n(-c4ccccc4)c(=O)n2[C@@H]3C1,13%
CNC(=S)N/N=C(\C)c1ccc(C)c(C)c1,4%
O=C(Nc1nnc(S(=O)(=O)N2CCCC2)s1)c1ccc(F)cc1,13%
CC(C)CN(C(=O)c1ccc(N2CCCC2=O)cc1)c1c(N)n(Cc2ccccc2)c(=O)[nH]c1=O,-8%
O=C(c1cnc(N2CCCCC2)c2ccccc12)N1CCN(c2ccccc2F)CC1,4%
CCC(Cc1ccccc1)OC(=O)c1ccccc1C(=O)O (configuration not stated),-4%
C=CCOc1ccccc1CNCCCN1CCOCC1,-8%
Cc1ccc(-c2nc(CS(=O)CC(=O)NCc3ccccn3)c(C)o2)cc1 (configuration not stated),?
CN(C)C/C=C/C(=O)Nc1cccc(-c2c[nH]c3ncnc(Oc4ccc(NC(=O)CC(=O)Nc5ccc(F)cc5)cc4F)c23)c1,11%
COc1ccc(CC(=O)NNC(=O)c2cccs2)cc1,-1%
CCCOC(=O)c1ccc(Nc2cc(C)nc3ncnn23)cc1,1%
S=c1[nH]nc(-c2cccc3ccccc23)n1-c1cccnc1,5%
COC(=O)c1ccc(CSc2nc3cc(Cl)ccc3s2)o1,-3%
CC(C)[C@H](NC(=O)NCCc1ccccc1)C(=O)O,6%
Cc1ccc(NC(=O)NNC(=O)c2cc3ccccc3cc2O)cc1,9%
CN(C(=O)CSc1nc2c(c(=O)[nH]1)CCC2)c1ccccc1,-1%
COc1ccc(NC(=O)Cc2nc3ccccc3[nH]2)cc1,22%
Cn1c(N=Cc2ccc([N+](=O)[O-])cc2)c(N)c(=O)n(C)c1=O,?
CCc1nc2ccccc2c(C(=O)O)c1C,-11%
CCOc1ccc(S(=O)(=O)N2CCC(n3c(C)nc4cccnc43)CC2)cc1,-6%
Cc1ccc(-n2c(C)nnc2SCC(=O)NC2CC2)cc1,8%
Cc1cc(NC(=O)c2cccc(S(=O)(=O)N3CCCCCC3)c2)n(-c2ccccn2)n1,-15%
COc1cc(S(=O)(=O)NCCCN2CCOCC2)ccc1Cl,11%
CC1CCC(NC(=O)CN(C)S(=O)(=O)c2ccc3c(c2)c(=O)n(C)c(=O)n3C)CC1 (configuration not stated),-16%
CCOc1ccc(CCNC(=O)c2ccc3[nH]c(C)c(C)c3c2)cc1,8%
Cc1c(C(=O)NCc2ccccn2)oc2ccccc12,21%
COc1cc(OC)cc(C(=O)NC(C)c2ccc(Br)cc2)c1 (configuration not stated),-20%
Cc1ccccc1-n1nc(CO)c(C(=O)NCCc2ccccc2)n1,-1%
CCOC(=O)N1CCc2c(sc3c2c(=O)n(-c2ccc(Cl)cc2)c(=O)n3CC(C)C)C1,-7%
O=S(=O)(c1ccc(OC(F)(F)F)cc1)N1CCC(c2nc3ccccc3s2)CC1,-12%
COc1ccc(/C=N/Nc2ncnc3sc4c(c23)CCCC4)cc1OC,-12%
CCC(C)(C)c1ccc(OCCCC[n+]2cccc(C)c2C)c(C(C)(C)CC)c1,1%
Cc1cccc(-c2nnn3c2nc(NCc2ccc4c(c2)OCO4)c2ccccc23)c1,-2%

In another format: results already given.
SMILES: CCOc1ccc(CCNC(=O)c2ccc3[nH]c(C)c(C)c3c2)cc1
  VDR inhibitor: 8%
SMILES: COc1cc(S(=O)(=O)NCCCN2CCOCC2)ccc1Cl
  VDR inhibitor: 11%
SMILES: CCOc1ccc(S(=O)(=O)N2CCC(n3c(C)nc4cccnc43)CC2)cc1
  VDR inhibitor: -6%
SMILES: Cc1cccc(-c2nnn3c2nc(NCc2ccc4c(c2)OCO4)c2ccccc23)c1
  VDR inhibitor: -2%

Following part.
molecule,VDR inhibitor
CC(=O)NC(CC(=O)N(C)C1CCCCC1)c1ccccc1 (configuration not stated),9%
CON1C(=O)C(=O)N(OC)C(C)(C)C1(C)C,-20%
CN(Cc1ccncn1)C(=O)C1CCC(=O)N(Cc2cccc(C(F)(F)F)c2)C1 (configuration not stated),-15%
COc1ccc([C@H]2CC(=O)C=C(c3ccc(Br)c4ccccc34)C2)cc1,6%
CC1CN(S(=O)(=O)c2ccc(NC(=O)c3ccco3)cc2)CC(C)O1 (configuration not stated),-2%
Oc1cc2c(c(Cl)c1O)CCNCC2c1ccccc1 (configuration not stated),?
Cc1ccc(S(=O)(=O)N(CC(=O)N2CCOCC2)CC(=O)N2CCOCC2)cc1,0%
CCCN(CC1CC1)C(=O)COC(=O)c1ccc2c(c1)C(=O)N(c1ccc(OCC)cc1)C2=O,1%
Fc1cccc(Nc2nc(-c3ccncc3)nc3ccccc23)c1,-10%
N#Cc1ccccc1NC(=O)CSc1ccc([N+](=O)[O-])cn1,0%
O=C(/C=C/c1ccco1)Nc1nc(-c2ccccc2)cs1,-11%
COc1ccccc1C(=O)NCC(=O)OCc1csc(-c2ccccc2)n1,-1%
CC(=O)c1c(C)[nH]c(C(=O)Nc2ccccn2)c1C,4%
COC(=O)CNC(=O)C(=O)OC,0%&2%
CCN(CC)C(=O)NC(c1ccc(C)c(F)c1)C(Cl)(Cl)Cl (configuration not stated),-19%
O=C(NCC1CCCO1)Nc1cc(Cl)cc(Cl)c1 (configuration not stated),5%
CCN(CCCNC(=O)c1ccc2c(c1)NC(=O)CN2C)c1cccc(C)c1,79µM*
Brc1ccc(-c2ncc3ccccn23)cc1,5%
COCCn1c(C)cc(C(=O)COc2nc3ccccc3nc2C)c1C,20%
Cn1nc(C(=O)Nc2ccc3c(c2)OCO3)c2ccccc2c1=O,27%
Cc1cccn2c(=O)c(C(=O)N3CCN(c4ccccc4F)CC3)cnc12,8%
Cc1cc(N/N=C(/CCC(=O)O)C(=O)O)nc2ccccc12,10%
CC(C)CCOP(=O)(c1ccccc1)c1ccccc1,-6%
COCCCn1c(=O)c2ccccc2n(CC(=O)N2CCCc3ccccc32)c1=O,-14%
Cn1c(N)c(S(=O)(=O)NCc2ccc(F)cc2)c(=O)n(C)c1=O,0%
CC(C)(C)c1nc(SCC(=O)N2CC(=O)Nc3ccccc32)c2ccccc2n1,14%
C=CCN1C=C2C(=O)C(C)(OC(=O)CCC(=O)OC)C(=O)C(Br)=C2C=C1c1ccc(OC)cc1 (configuration not stated),?
O=C(NCC(=O)N1CCN(c2ncc(C(F)(F)F)cc2Cl)CC1)c1ccc(Br)o1,7%
CCCCC(=O)Nc1ccccc1C(=O)N1CCOCC1,11%
CCOC(=O)Nc1ccc2c(CNC(C)c3ccccc3OC)cc(=O)oc2c1 (configuration not stated),-8%
C=CCNc1cc(F)ccc1S(=O)(=O)NCC=C,-8%
c1ccc2c(Cn3ccnc3)cccc2c1,10%
CCOC(=O)c1cnc2sccn2c1=O,11%
CC(=O)OCCN1CCN(C(=O)CN2C(=O)NC(c3ccccc3)(c3ccccc3)C2=O)CC1,-27%
Cc1ccc2c(Cl)c(C(=O)N/N=C/c3cccn3C)sc2c1,-6%
Fc1ccccc1-c1nc(NCc2ccccc2)c2ccccc2n1,16%
Cc1ccc2oc(=O)c3cc(C(=O)Nc4ccc(F)cc4F)sc3c2c1,-22%
Cc1cccc(OCC(=O)N/N=C\c2cccn2C)c1C,9%
COCc1cc(C(C)=O)ccc1OCC(=O)Nc1ccc(NC(C)=O)cc1,21%
COc1ccccc1C(=O)NCC(=O)N1CCN(S(=O)(=O)c2ccccc2C(F)(F)F)CC1,9%
Cc1ccc[n+](/C(=C\C(=C=[N-])C#N)C(=O)c2ccc(Cl)cc2)c1,-19%
COc1cccc(NC(=S)N2CCC(N(C)CC3CCCO3)CC2)c1 (configuration not stated),7%
CCc1cc(=O)oc2c(CNCc3ccc(OC)cc3OC)c(O)c(Cl)cc12,-13%
COc1c(C)cc(Br)cc1C(=O)Nc1ccc(S(N)(=O)=O)cc1,-14%
COC(=O)c1ccccc1NC(=O)N1c2ccccc2Sc2ccccc21,-3%
CC1(C)CC(=O)C/C(=N\NC(=O)c2cccs2)C1,?
O=C(COC(=O)CSc1ccc([N+](=O)[O-])cc1)NC1CCCCCCC1,?
CNC(=O)CSc1nnnn1-c1ccc(C)cc1C,14%
O=c1c2ccccc2nc(SCc2nnc(-c3ccccc3)o2)n1-c1ccccc1,14%
COC(=O)C1=C(C)N(C)C(=O)NC1c1ccc(O)c(OC)c1 (configuration not stated),-10%
Fc1ccccc1N1CCN(c2ncnc3onc(-c4ccc(Cl)cc4)c23)CC1,-8%
O=C1CS/C(=N\NC(=O)c2ccccc2)N1,1%
CC(OC(=O)c1ccc(Cl)nc1)C(=O)NCc1ccc2c(c1)OCO2 (configuration not stated),-1%
Cc1cc(C)c(NC(=O)CN2CCOCCOCCOCCOCC2)c(C)c1,-5%
Cc1csc(NC(=O)c2ccc(N3CCCC3=O)cc2)n1,3%
Cc1ccc(N2C(=O)N(CC(=O)Nc3ccc(C)cc3Cl)C(=O)C2C)cc1 (configuration not stated),21%
C/C(=N\NC(=O)c1ccn(C)n1)c1cccc(NC(=O)c2ccncc2)c1,-17%
COc1cccc(C2C(C(=O)Nc3ccccc3)=C(C)Nc3nc(-c4ccccc4)nn32)c1OC (configuration not stated),20%
CC(=O)NC1(NC(C)=O)CCN(C)CC1,-5%
O=C(NCC(c1ccc2c(c1)OCO2)N1CCN(c2ccccc2)CC1)C(=O)Nc1ccccc1 (configuration not stated),0%

Additional structures follow:
molecule,VDR inhibitor
COC(=O)c1ccc(CO/N=C2\CCCc3nonc32)cc1,?
CCC(C)(C)n1nnnc1C(C(C)C)N(CCCO)Cc1cc2cc(C)ccc2[nH]c1=O (configuration not stated),-16%
Cn1c(SCC(N)=O)nnc1-c1ccc(S(=O)(=O)N2CCCC2)cc1,12%
Cc1cc(C)c(OCC(=O)Nc2nnc(C3CC3)s2)c(C)c1,-2%
CC1CCN(C(=O)N[C@@H](Cc2ccccc2)C(=O)O)CC1,9%
COc1ccc(C(CCN)c2ccc3c(c2)OCO3)cc1 (configuration not stated),-5%
N#Cc1ccc(OCC(=O)OCC(=O)Nc2cc(C(F)(F)F)ccc2N2CCOCC2)cc1,-5%
CC[C@@H]1C/C=C\Cc2ccccc2[C@@H](C(=O)C[C@H](O)CC(C)=O)OC1=O,-7%
COc1ccc(/C=C/C(=O)NC(=S)NNC(=O)c2cnccn2)cc1,2%
